Screening data: PubChem, several laboratories
Pemphigus Ab inh: inhibitors of pemphigus antibody binding to human desmoglein-3; P32926; DSG3-coupled beads, scFv-anti-DSG3-GFP binding, flow cytometry; hits give low values; binding (percent of control), % at 10 µM; hit rate 0.48% among 310,000; AID 588358;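 active = binding more than 3 SD below its plate's average and above zero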;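 also: hits lower antibody fragment binding to DSG3; some compounds called inactive have numbers as strong as hits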
Target sequence (P32926 whole entry, looked up, the tested form may be a part): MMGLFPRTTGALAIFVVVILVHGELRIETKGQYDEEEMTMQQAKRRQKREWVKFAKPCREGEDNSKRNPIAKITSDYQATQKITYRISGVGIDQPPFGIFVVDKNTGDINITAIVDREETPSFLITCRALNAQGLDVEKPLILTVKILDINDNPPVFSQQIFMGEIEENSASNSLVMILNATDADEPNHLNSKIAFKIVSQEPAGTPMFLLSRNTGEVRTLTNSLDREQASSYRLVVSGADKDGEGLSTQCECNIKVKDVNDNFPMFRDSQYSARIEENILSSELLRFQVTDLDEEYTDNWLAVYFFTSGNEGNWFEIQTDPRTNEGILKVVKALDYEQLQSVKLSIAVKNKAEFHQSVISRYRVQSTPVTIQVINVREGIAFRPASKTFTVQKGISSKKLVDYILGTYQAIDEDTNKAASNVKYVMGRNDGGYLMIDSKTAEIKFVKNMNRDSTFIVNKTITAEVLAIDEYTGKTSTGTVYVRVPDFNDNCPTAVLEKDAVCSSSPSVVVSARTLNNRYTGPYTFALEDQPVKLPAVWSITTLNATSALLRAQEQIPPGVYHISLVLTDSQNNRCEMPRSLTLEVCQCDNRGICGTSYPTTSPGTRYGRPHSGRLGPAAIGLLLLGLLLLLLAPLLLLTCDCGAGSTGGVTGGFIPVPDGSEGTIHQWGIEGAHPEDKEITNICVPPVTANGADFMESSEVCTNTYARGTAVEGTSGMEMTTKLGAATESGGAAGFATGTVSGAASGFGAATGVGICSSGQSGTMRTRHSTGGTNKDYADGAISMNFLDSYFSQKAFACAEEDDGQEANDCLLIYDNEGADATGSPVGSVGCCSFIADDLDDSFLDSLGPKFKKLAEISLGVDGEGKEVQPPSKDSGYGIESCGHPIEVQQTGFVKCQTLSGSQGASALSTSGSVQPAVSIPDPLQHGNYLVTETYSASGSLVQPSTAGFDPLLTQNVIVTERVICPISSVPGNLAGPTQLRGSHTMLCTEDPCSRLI
cardiac RTF act: cardiac RTF calcium sensitization; P19429+P45379; IANBD-labeled TnC RTF fluorescence at EC20 calcium; 0% EC20 calcium, 100% full calcium; activation, % at 7.2 µM; hit rate 0.24% among 340,000;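 active = activation above the mean over all tested compounds plus 3 SD, cut at about 30% in these data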;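 also: rise in fluorescence read as greater calcium sensitivity of cardiac thin filaments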
RTF Ca sens inh: cardiac RTF calcium desensitization; P19429+P45379; IANBD-labeled cardiac RTF, Ca2+ fluorescence; inhibition, % at 7.15 µM; hit rate 0.12% among 340,000; AID 493244;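 active = inhibition above the mean inhibition of all tested compounds plus 3 SD, cut at about 17% in these data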;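 also: assay run at fixed EC70 calcium of 1.6 mM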
Wnt bcat act: activators of Wnt/beta-catenin signaling. Wnt/beta-catenin reporter cell assay, activator, plate reader. AID 743398. hit rate 1.2% among 300,000. activation, % at 9.35 µM; in the data active = activation above about 30%, passing the limit was not always enough;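 also: 0% = neutral control wells and 100% = positive control wells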
V-ATPase pHluor: alters yeast V-ATPase proton transport; response, % at 10 µM; hit rate 0.37% among 350,000; S. cerevisiae, pHLuorin cytosolic pH fluorescence; in the data active = response mostly above about 7.3%, no sharp cut-off; inactive = mostly below about 5.4%; also: actives read high; inactives centre near 0; some compounds called inactive have numbers as strong as hits; reference of the scale not given here
Active calls of the source: *; i = inactive; · = not tested or not shown; & = joins results of further samples. An excerpt. The share of hits here may be higher or lower than overall.

SMILES	Pemphigus Ab inh	cardiac RTF act	RTF Ca sens inh	Wnt bcat act	V-ATPase pHluor
COc1ccc(C[C@H](C)NC[C@@H](O)c2ccc(O)c(NC=O)c2)cc1	124.8	6.3	1.5	2.9	-3.5
Cc1ccccc1Nc1nc(N)nc(C)c1Br	108.6	1.0	-5.1	-2.3	1.6
CS(=O)(=O)c1ccc([C@@H](O)[C@@H](CF)NC(=O)C(Cl)Cl)cc1	104.1	4.6	-5.3	0.6	-1.5
CCOC(=O)N1CCC(=C2c3ccc(Cl)cc3CCc3cccnc32)CC1	115.1	5.4	9.7	-3.8	-0.4
CN(C)CC/C=C1\c2ccccc2COc2ccccc21	100.0	2.8	-6.3	0.4	-2.9
CC(C)(C(=O)O)c1ccc([C@H](O)CCCN2CCC(C(O)(c3ccccc3)c3ccccc3)CC2)cc1	·	-4.4	16.1	2.3	-6.4
CN1[C@@H]2CC[C@H]1CC(OC(=O)[C@H](CO)c1ccccc1)C2 (stereo partly drawn)	100.3	i	i	-1.5	-4.5
COc1c2occc2cc2ccc(=O)oc12	104.8	-2.1	3.9	-0.1	3.4
Cc1cc(C)c(CNC(=O)c2cc(C3CC3)nc3c2cnn3C(C)C)c(=O)[nH]1	103.3	2.7	-3.5	10.4	8.1
COc1ccc(Cn2cc(C(=O)O)c(=O)c3ccccc32)cc1	100.7	-1.6	0.8	-1.1	-0.8
NCCc1ccn[nH]1	101.1	2.2	3.2	0.9	0.9
C#C[C@]1(O)CC[C@H]2[C@@H]3CCC4=CC(=O)CC[C@@H]4[C@H]3CC[C@@]21C	113.0	12.6	1.6	2.7	24.7*
CN(C)CCCN1c2ccccc2CCc2ccccc21	·	-3.6	10.2	-0.5&-4.0	-0.5
COc1cccc(N2CCN(CC(=O)Nc3ccc(-n4cnnn4)cc3)CC2)c1	93.7	6.6	-13.8	0.6	1.3
O=C(NCc1cccnc1)c1cc(-c2ccco2)on1	117.2	11.3	-7.2	8.2	·
CC(C)(C)c1ccc(-n2ncc3c2CCCC3NC(=O)CCN2CCCC2=O)cc1 (stereo not drawn)	102.7	0.6	-3.4	-11.3	3.8
Cc1ccc(/C=C/C(=O)c2ccccc2)cc1	101.9	-8.0	-1.1	·	5.1
CN1[C@@H]2CC[C@H]1CC(OC(=O)C(CO)c1ccccc1)C2 (stereo partly drawn)	100.7	i	i	-7.2	4.4
C[C@H]1O[C@@H](O[C@H]2[C@@H](O)C[C@H](O[C@H]3[C@@H](O)C[C@H](O[C@H]4CC[C@@]5(C)[C@H](CC[C@@H]6[C@@H]5C[C@@H](O)[C@]5(C)[C@@H](C7=CC(=O)OC7)CC[C@]65O)C4)O[C@@H]3C)O[C@@H]2C)C[C@H](O)[C@@H]1O	117.5	3.0	12.3	-22.1	-3.8
C[C@H](CS)C(=O)N1CCC[C@H]1C(=O)O	109.5	-2.2	6.7	-6.8	3.3
CN(C)CCOC(c1ccccc1)c1ccccc1	118.0&106.1	i	i	-1.0&-6.2	1.2&2.9
CCCCNc1ccc(C(=O)O)cc1	101.3	-4.4	1.9	0.5	-3.2
CC(C)(C)NC(=O)[C@@H]1C[C@@H]2CCCC[C@@H]2CN1C[C@@H](O)[C@H](Cc1ccccc1)NC(=O)[C@H](CC(N)=O)NC(=O)c1ccc2ccccc2n1	101.6&98.0	-4.7&-2.4	11.2&10.0	-2.7&-1.4	-8.3&-0.2
Cc1cc(NS(=O)(=O)c2ccc(N)cc2)no1	108.7	1.6	8.6	-4.8	1.9
